# Arbovirus inh: antivirals against arbovirus infection, primary screen, cell-based, full library, 10K replicate subset; inhibition, % at 10 µM; 200,000 compounds, 0.37% hits; arbovirus infection cell-based antiviral screen; AID 1251, 2008;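 active means inhibition from about 30%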;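 further: bluetongue infection of BSR cells; cell survival read as ATP light after 72 h; 0% = infected wells without compound and 100% = uninfected wells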
# RecA intein inh: Mtb RecA intein splicing inhibitors, primary screen, biochemical, fluorescence, HTS. Protein RecA (Mycobacterium tuberculosis (strain ATCC 25618 / H37Rv)), P9WHJ3. cell-free RecA intein splicing. inhibition, %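 (about 9 µM by stock and volumes)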. 290,000 compounds, 0.75% hits. AID 2221, 2009; in the data active means inhibition above about 30%; inconclusive means no clear call, values can overlap the other calls;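 further: 0% = vehicle wells and 100% = reference inhibitor control wells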
# Target sequence (P9WHJ3 whole entry, looked up): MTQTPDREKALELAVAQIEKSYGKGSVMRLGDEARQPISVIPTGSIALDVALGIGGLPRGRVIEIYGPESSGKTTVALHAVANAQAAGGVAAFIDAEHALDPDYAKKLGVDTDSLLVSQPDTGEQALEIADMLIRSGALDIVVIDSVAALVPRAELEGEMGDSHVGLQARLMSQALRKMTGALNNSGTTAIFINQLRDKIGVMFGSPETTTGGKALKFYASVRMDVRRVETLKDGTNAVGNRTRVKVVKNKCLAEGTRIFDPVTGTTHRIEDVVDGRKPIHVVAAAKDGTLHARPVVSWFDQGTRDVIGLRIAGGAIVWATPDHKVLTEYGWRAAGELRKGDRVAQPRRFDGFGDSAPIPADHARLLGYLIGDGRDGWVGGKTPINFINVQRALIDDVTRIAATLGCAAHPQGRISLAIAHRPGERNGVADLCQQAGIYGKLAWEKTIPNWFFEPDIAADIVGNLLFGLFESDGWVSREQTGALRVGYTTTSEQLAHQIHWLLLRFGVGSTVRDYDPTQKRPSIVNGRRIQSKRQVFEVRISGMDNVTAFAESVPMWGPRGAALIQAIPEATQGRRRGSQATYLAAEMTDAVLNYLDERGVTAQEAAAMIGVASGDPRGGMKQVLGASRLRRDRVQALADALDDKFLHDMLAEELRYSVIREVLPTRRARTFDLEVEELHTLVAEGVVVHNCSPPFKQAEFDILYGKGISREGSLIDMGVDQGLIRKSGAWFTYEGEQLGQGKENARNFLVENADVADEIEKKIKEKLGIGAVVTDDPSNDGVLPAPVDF
# Mtb bLac sens: beta-lactam sensitization of Mtb H37Rv, H37Rv | M. tuberculosis H37Rv growth with meropenem, percent inhibition; hits of this screen are not shown here | inhibition, % at 25 µM | 330,000 compounds, 0.27% hits | AID 434955, 2010;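 active means about 74% or more and at least 40 points above the plate without the antibiotic, then above 30% in a dose series; inconclusive means first-round hits that could not be retested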;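 further: growth measured after seven days incubation then overnight dye step; 0% = bacteria only wells and 100% = bacteria with antibiotic; twin plates without the antibiotic show which effects depend on it; some results filed as inactive read as strong as hits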
# YopH inh: YopH tyrosine phosphatase inhibitors, primary screen, biochemical, fluorescence Ex485/Em525 | inhibition, %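 (about 10 µM by stock and volumes)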 | YopH tyrosine phosphatase [Yersinia enterocolitica] | 140,000 compounds, 0.16% hits;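 active means inhibition of 50% or more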;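 further: controls were vehicle for no effect and minimum signal wells for full effect; inactives centre near -20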
# Mtb growth: M. tuberculosis H37Rv growth inhibitors, H37Rv strain (AID 1626); M. tuberculosis H37Rv growth inhibition; higher % means a stronger effect; inhibition, % at 10 µM; hits with a dose series show IC50 in µM; 220,000 compounds, 0.95% hits;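 active means confirmed in a dose series; inconclusive means inhibition above 80% but not taken into the dose series; inactive means below 80% or under 30% at every dose of the series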;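 further: bacteria incubated seven days before Alamar blue readout; 0% = bacteria only wells and 100% = bacteria with antibiotic wells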
# Arbovirus inh repeat: also measured in Arbovirus inh; calls as there; inhibition, %; measured here: 10K subset replicate screen; many hits read low in the repeat;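 first of two repeat runs on a subset; 0% = infected and 100% = uninfected wells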
# Numbers without * were called inactive; ? = inconclusive; . = no result given. This is a subset; count on the stated rates, not on these rows.
SMILES,Arbovirus inh,RecA intein inh,Mtb bLac sens,YopH inh,Mtb growth,others
Nn1c(SCC(=O)Nc2ccc(S(=O)(=O)N3CCCC3)cc2)nnc1C(F)(F)F,4,0.6,1,-16,-10%,
CC(/C=C/c1ccc(C)o1)=C\C(=O)O,4,-0.9,-1,-8,3%,
c1ccc(-n2cnc3ccccc32)nc1,.,0.2,-3,.,.,
COc1cc(SC)ccc1C(=O)N1CCN(c2ccc(O)cc2)CC1,-25,-5.3,2,.,-10%,
Cc1nn(CC(=O)N/N=C/c2cccs2)c(C)c1[N+](=O)[O-],.,-1.3,-14,.,-11%,
COc1ccc(CNC(=O)COC(=O)c2n[nH]c3ccccc23)cc1OC,4,.,-6,-16,-5%,
Cc1ccc(C(=O)OCC(=O)Nc2ccccc2)cc1NC(=O)c1ccco1,2,-0.3,-4,-34,2%,
CCOC(=O)N1CCN(C(=O)c2ccc(CSc3ccc(Cl)cc3)cc2)CC1,1,2.4,.,.,4%,
O=C1N(C2CCCC2)C[C@@H]2C[C@@H](c3cccn3-c3ccccn3)N3CCC[C@@]123,9,2.2,4,.,5%,
Cn1c(=O)[nH]c2cc3ccccc3cc21,-5,0.7,-2,-31,-4%,
CN(C)CCOCCSc1ccc(Cl)cc1,-8,-0.3,30,-9,1%,
COCc1cc(OC(=O)N(C)C)nc2c1c(C)nn2C,.,1.6,5,.,-6%,
Cc1ccc(-n2c(Cn3ncc4ccccc4c3=O)n[nH]c2=S)cc1,1,0.9,0,.,-8%,
CCN(CC)C(=O)C1(P(=O)(c2ccccc2)c2ccccc2)CCC1,.,-1.5,3,.,7%,
CC1(C)NC(=O)N(CC(O)CN2C(=O)CCC2=O)C1=O (stereo not given),1,0.6,-5,-36,-8%,
O=C(NC(=S)NC(=O)c1ccccc1F)c1ccccc1F,3,0.6,-2,-20,6%,
COc1ccc(C)cc1S(=O)(=O)NCc1cccs1,.,0.0,-3,.,.,
CC(C)c1ccc(S(=O)(=O)N2CCN(C(=O)C3CCCC3)CC2)cc1,.,3.0,8,.,.,
Cc1ccc(CSCC(=O)N2CCN(c3ccccc3)CC2)cc1,8,1.0,-10,-36,-11%,
CCOc1ccccc1NC(=O)c1cc(S(=O)(=O)N2CCN(CC)CC2)ccc1Cl,.,-0.3,2,.,.,
COCCCn1c(SCC(=O)NC2CCCC2)nnc1-c1ccco1,2,-5.4,?,-1,-15%,
NC(=O)C(c1ccccc1)c1ncc(C(F)(F)F)cc1Cl (stereo not given),2,-1.3,-1,-23,-2%,
COC(=O)c1ccccc1Nc1ccccc1,-3,.,0,-44,0%,
O=C(c1cccc(-n2cnnn2)c1)N1CC=C(c2ccccc2)CC1,1,-5.1,?,-39,3%,
Cc1cn([C@@H](CCCCN)C(=O)NCCCCCCCCCCC(=O)N2CCNCC2)nn1,.,0.5,-5,.,.,
O=C(NC1CCN(Cc2ccc(Cl)cc2Cl)CC1)c1ccccc1,.,-1.5,-1,.,.,
Cc1ccc(CNC(=O)Cn2nnc(C(=O)Nc3ccc(Br)cc3)c2N)cc1,.,0.8,1,.,.,
Cc1nc2ccccc2cc1C(=O)NCc1ccc(F)cc1,9,0.7,-5,.,1%,
COc1ccc(CCNC(=O)COc2ccc(S(=O)(=O)NC3CCCCC3)cc2Cl)cc1,-31,0.8,88,-38,20%,
CCOC1=CC(=O)N(Cc2ccccc2)C1,.,0.7,-5,.,.,
Cc1ccccc1-c1nc(CN2CCC(C(=O)NCCCN3CC(C)CC(C)C3)CC2)c(C)o1 (stereo not given),-34,-0.2,-12,-15,3%,
Cn1c(C(=O)NCc2ccccc2)cc2oc3ccccc3c21,-1,.,-4,-8,1%,
O=C(COC(=O)c1cc[n+]([O-])cc1)Nc1ccc([N+](=O)[O-])cc1Cl,6,-3.8,-3,.,5%,
COC(=O)C1=C(C)N=C2SCCC(=O)N2C1c1cc(Br)ccc1OC (stereo not given),4,3.3,1,-29,-14%,
COc1ccc(C2(CNC(=O)c3cc([N+](=O)[O-])cc([N+](=O)[O-])c3)CCCC2)cc1OC,-8,4.0,.,-17,<0.2µM*,
O=C(CN1C(=O)NC(Cc2ccccc2)(Cc2ccccc2)C1=O)NCC1CCCCC1,1,2.8,0,-16,.,
Cc1ccc(C(=O)CCC(=O)Nc2cccc(C)c2)cc1,.,-0.1,4,.,.,
COc1ccc(-c2c(C)nn3c(N)c(C#N)cnc23)cc1OC,-6,-3.8,0,.,-5%,
Cc1ccc(S(=O)(=O)CCC(=O)c2cccc([N+](=O)[O-])c2)cc1,.,1.6,-2,.,.,
CCN(CC(=O)NCc1ccc(Cl)cc1)C(=O)CCc1ccccc1O,.,1.3,-2,.,.,
Cc1ccc(-c2noc(CCC(=O)Nc3ccccc3C)n2)cc1,3,-0.6,57,-36,14%,
CC(=O)OC1C2CCC1C(N1CCCCC1)CC2 (stereo not given),-4,0.1,-1,.,-3%,
c1ccc(COc2ccccc2CNc2nn[nH]n2)cc1,6,0.5,19,.,6%,
CCN(CC)S(=O)(=O)c1ccc(N2CCN(S(=O)(=O)c3ccccc3C#N)CC2)nc1,4,32*,-1,-1,3%,
COCCCNC(=O)c1ccc(CSCc2ccc(C)cc2)o1,.,3.7,0,.,.,
O=C(Cn1c(=O)n(-c2ccc(F)cc2)c(=O)c2sccc21)c1ccccc1,16,-0.2,-7,-11,2%,
Cc1ccc(NC(=O)OCCNC(=O)c2ccncc2)cc1,2,0.2,2,.,0%,
CCOC(=O)C1(C)NC(c2ccco2)C2C(=O)N(C)C(=O)C21 (stereo not given),-4,-2.5,0,.,-4%,
CCC(=O)N1CCc2cc(S(=O)(=O)NC(Cc3ccccc3)C(=O)NC3CCCCC3C)ccc21 (stereo not given),-7,-2.1,-7,-21,5%,
CCOc1ccc(N/C=C/C(=O)c2ccc(OC)cc2)cc1,.,0.4,96,.,.,
Cc1c(CN2CCC(C(=O)Nc3ccc(Oc4ccccc4)nc3)CC2)cnn1C,.,-8.3,-5,.,.,
Cc1cc(C)n(S(=O)(=O)Cc2ccccc2)n1,1,0.6,-2,-11,7%,
Cc1sc2ncn(CC(=O)N3CCCCC3)c(=O)c2c1S(=O)(=O)N1CCC(C)CC1,.,2.0,1,.,.,
Cc1ccc2[nH]c3ccccc3c(=O)c2c1,.,-386,8,.,.,
CCOC(=O)c1sc(=S)n(Cc2ccccc2)c1C,.,6.9,-1,.,-5%,
Cc1cnc(C(=O)N2CCCC(C(=O)c3ccc(C(C)(C)C)cc3)C2)cn1 (stereo not given),3,3.1,25,.,5%,
CCOc1cc(C(=O)OCC(=O)Nc2ccc(Cl)cn2)ccc1OCC(=O)N1CCOCC1,4,-0.6,4,-24,8%,
Cc1c(C(=O)Nc2nccs2)oc2c(Cl)cccc12,.,-2.2,22,.,.,
Cc1cc(NC(=O)c2cc(-c3ccc(Br)cc3)on2)no1,-1,-0.4,0,.,8%,
COC(=O)c1ccc2ccn(CC(=O)NC(C)C)c2c1,-2,0.8,-4,-48,7%,

# No new results follow: entries from further up.
SMILES,Arbovirus inh,RecA intein inh,Mtb bLac sens,YopH inh,Mtb growth,others
Cc1ccc2[nH]c3ccccc3c(=O)c2c1,.,-386,8,.,.,
CCOC(=O)c1sc(=S)n(Cc2ccccc2)c1C,.,6.9,-1,.,-5%,
Cc1cnc(C(=O)N2CCCC(C(=O)c3ccc(C(C)(C)C)cc3)C2)cn1 (stereo not given),3,3.1,25,.,5%,
CCOc1cc(C(=O)OCC(=O)Nc2ccc(Cl)cn2)ccc1OCC(=O)N1CCOCC1,4,-0.6,4,-24,8%,
Cc1c(C(=O)Nc2nccs2)oc2c(Cl)cccc12,.,-2.2,22,.,.,
Cc1cc(NC(=O)c2cc(-c3ccc(Br)cc3)on2)no1,-1,-0.4,0,.,8%,
COC(=O)c1ccc2ccn(CC(=O)NC(C)C)c2c1,-2,0.8,-4,-48,7%,

# Back to the main list; the two compounds before the break are reprinted first.
SMILES,Arbovirus inh,RecA intein inh,Mtb bLac sens,YopH inh,Mtb growth,others
Cc1cc(NC(=O)c2cc(-c3ccc(Br)cc3)on2)no1,-1,-0.4,0,.,8%,
COC(=O)c1ccc2ccn(CC(=O)NC(C)C)c2c1,-2,0.8,-4,-48,7%,
COCCNC(=O)Nc1ccc2nc(C)sc2c1,-1,1.6,-9,3,-3%,
CCOC(=O)c1cccc(NC(=O)c2ccc3c(c2)C(=O)N(CC2CCCO2)C3=O)c1 (stereo not given),.,2.4,-12,.,.,
CC/C(=N\OC(=O)c1ccc(OC(C)C)cc1)c1ccc(C)cc1,5,5.4,60,9,.,
CN(C)c1nc(N(C)C)nc(N(C)C)n1,-2,0.2,-8,-14,-5%,
N/C(=N\c1nc2ccccc2o1)NC(=O)c1ccccc1F,4,0.8,0,-13,3%,
Cc1onc(-c2ccccc2Cl)c1C(N)=O,14,-0.6,-7,6,3%,
Cc1ccc(OCCCC(=O)NC2CCCCC2)cc1,.,-0.5,1,.,.,
COc1cc([C@@H]2c3cc4c(cc3[C@@H](O[C@@H]3O[C@@H]5CO[C@@H](C)O[C@H]5[C@H](O)[C@H]3O)[C@H]3COC(=O)[C@H]23)OCO4)cc(OC)c1O,.,2.8,-6,.,13%,
Cn1ncc([N+](=O)[O-])c1C(=O)Nc1nc2ccccc2n1CCN1CCCCC1,-12,.,-6,2,-8%,
CCC1CCCCN1C(=O)COC(=O)c1cc2ccccc2cc1O (stereo not given),4,2.3,99,-43,1.3µM*,
CC1(C)CC(=O)C=C(Nc2ccc(OCC(F)(F)C(F)F)cc2)C1,-16,3.1,47,-9,9%,Arbovirus inh repeat=-4
Oc1cccc2ccc(/C=C/c3ccccc3Cl)nc12,.,0.8,98,.,.,
C=CCn1c(SCc2c(Cl)cccc2Cl)nnc1-c1cccnc1,7,-0.1,-8,5,3%,
Cc1ccc(-n2nc(C)cc2NC(=O)c2ccc(C)s2)cc1,-3,1.1,.,-29,-2%,
CC(C)Cn1c(C(C)NC(=O)Cc2ccccc2)nc2ccccc21 (stereo not given),1,9.0,5,-46,1%,
NC1=NS(=O)(=O)NC1c1ccc(Cl)cc1 (stereo not given),10,1.1,2,-22,-5%,
COc1ccccc1C(=O)C1CCCN(C(=O)C2=CC(=O)CC(C)(C)O2)C1 (stereo not given),.,1.6,-5,.,.,
Cc1ccc(C)c(N2N=C(C(=O)O)CCC2=O)c1,.,-2.2,1,.,-7%,
COc1ccc(S(=O)(=O)N2CCCC2CNC(=O)C(=O)NCc2cccs2)cc1 (stereo not given),.,0.9,2,.,.,
CCOc1cc2[nH]c(=S)n(CCN3CCCCC3C)c(=O)c2cc1OCC (stereo not given),-8,0.3,-1,-39,-13%,
Cc1ccc(C)c(OCc2cc(C(=O)N3C[C@@H](C)O[C@@H](C)C3)no2)c1,.,-0.3,2,.,.,
CCOc1ccccc1C(=O)N[C@H](C(=O)NCc1ccccc1)C(C)C,11,5.5,-12,.,0%,
COc1ccc(N2CCN(C3CCCN(Cc4cccc(C)c4)C3)CC2)cc1 (stereo not given),.,-2.1,-9,.,.,
O=C(Cn1cc(C(=O)c2ccccc2)c2ccccc21)NCc1ccco1,-10,-0.2,-14,-16,-2%,
O=C(O)CC1SC(=O)N(CC(=O)c2ccccc2)C1=O (stereo not given),.,-3.6,-5,.,.,
CC(=O)Nc1ccc(NC(=O)c2nc(-c3ccccc3)oc2C)cc1,-2,-0.1,-14,.,1%,
CCOC(=O)C1=C(O)C(=O)NC(c2ccccc2)=C(OCC)C1,2,-0.6,-6,-37,-3%,
COc1ccc(OC)c(/C=C/C(=O)N2CCCc3ccccc32)c1,-2,8.1,38,.,17%,
COc1ccc(CNC(=O)C2CCN(S(=O)(=O)c3ccccc3)CC2)cc1,.,-2.7,-9,.,.,
Cc1onc(-c2ccccc2)c1C(=O)Nc1ccc(-c2nnc3n2CCCCC3)cc1,-6,11,.,-40,15%,
COc1ccc(Cl)cc1NC(=O)CCN1C(=O)C2C3CCC(C3)C2C1=O (stereo not given),.,1.2,-3,.,.,
Cc1ccc(C2CC(c3ccc(F)cc3)Nc3nc(N)nn32)cc1 (stereo not given),9,4.4,2,-20,-7%,Arbovirus inh repeat=6
CSc1n[nH]c(NCc2ccc(C)cc2)n1,5,-1.4,-9,-36,-2%,
CCOc1ccc(CCNC(=O)CN2C(=O)NC3(CCCc4ccccc43)C2=O)cc1OCC (stereo not given),.,-0.8,2,.,.,
COc1ccc(C)cc1NC(=O)C(Sc1nnc(Nc2ccccc2F)s1)c1ccccc1 (stereo not given),-5,-0.5,1,-30,6%,

# Assay outcomes as filed in PubChem BioAssay.
